CSC inhib: cancer stem cell viability inhibitors, primary screen, luminescence. inhibition, % at 7.5 µM. AID 2717, 2010. cancer stem cell-like cells viability. 300,000 tested, 1.1% active;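 active = mean at 75% or more and at least half the replicates too; inconclusive = mean and replicates disagree; tested in HMLE shEcad cells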;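 also: 0% = median of negative and 100% = median of positive control wells; the first replicate is given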
PABP FP inh: PABP poly(A) RNA binding inhibitors, primary screen, biochemical, fluorescence polarization, uHTS; Polyadenylate-binding protein 1 (Homo sapiens), P11940; inhibition, % at 35 µM; 290,000 tested, 1% active; AID 2014, 2009;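 active = 50% or more with normal probe brightness, or confirmed in later tests; inconclusive = above 50% with abnormal brightness, or retests that disagree; inactive = below 50% or failed in later tests; about a fifth of its hits are not listed in these tables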;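 also: calls also rest on retests at 20 µM and on dose response follow-up; controls were probe without protein and protein plus probe with vehicle; some compounds called inactive have numbers as strong as hits; many hits fall short of the cut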
Rce1 inhib: yeast Rce1p protease inhibitors, primary screen, biochemical, fluorescence, cell-free homogeneous; yeast membranes, quenched prenylated peptide cleavage fluorescence; calls only; 290,000 tested, 0.27% active;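 active = fall in fluorescence gain of 50% or more versus controls, with final raw signal at or below 3038400; inconclusive = same 50% fall but final raw signal above 3038400; inactive = fall in fluorescence gain under 50%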;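 also: plate controls were neutral control wells for no effect and wells lacking membranes for full effect; tested at 10 µM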
Target sequence (Q03530 whole entry, looked up): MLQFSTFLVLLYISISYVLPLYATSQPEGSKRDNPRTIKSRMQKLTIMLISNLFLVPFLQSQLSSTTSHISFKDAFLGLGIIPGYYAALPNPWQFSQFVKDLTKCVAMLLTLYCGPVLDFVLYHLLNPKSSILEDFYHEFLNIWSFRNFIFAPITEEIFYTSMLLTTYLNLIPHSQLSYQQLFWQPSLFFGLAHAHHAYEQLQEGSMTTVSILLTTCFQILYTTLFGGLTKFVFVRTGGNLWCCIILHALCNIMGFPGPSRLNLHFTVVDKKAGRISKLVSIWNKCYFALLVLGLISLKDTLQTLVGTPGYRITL
eIF4H inh: human eIF4H binding inhibitors, primary screen, translation initiation inhibitor project, biochemical, uHTS, fluorescence polarization | AID 2012, 2009 | eIF4H fluorescence polarization binding assay | Eukaryotic translation initiation factor 4H (Homo sapiens), Q15056 | 290,000 tested, 0.94% active | inhibition, % at 35 µM;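 active = 50% or more with normal probe brightness, or confirmed in later tests; inconclusive = above 50% with abnormal brightness, or retests that disagree; inactive = below 50% or failed in later tests; about a fifth of its hits are not listed in these tables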;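 also: calls also rest on retests at 20 µM and on dose response follow-up; 0% = protein and probe with vehicle and 100% = probe without protein; strong numbers were not always called active; many hits fall short of the cut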
MT1-MMP act inh: blockers of MT1-MMP proenzyme processing, primary screen, HT1080 RFP-PRO-GFP cells, GFP/RFP fluorescence; 360,000 tested, 0.061% active; Matrix metalloproteinase-14 (Homo sapiens), P50281; GFP/RFP ratio fluorescence, overnight; percent of plate control window, DMSO zero; AID 651647, 2012; GFP/RFP ratio change, % at 20 µM;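 active = GFP/RFP ratio change of at least 30% with cell ATP level not reduced by more than half and red fluorescence within 50% of control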; also: strong numbers were not always called active
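Assay system: HT1080 cells carrying an RFP-PRO-GFP reporter | Dosing: Single dose of 20 µM compound, 1% DMSO final | Incubation: Cells overnight before dosing, compound overnight, 37 °C, 5% CO2 | Evaluation: GFP/RFP fluorescence ratio | Control set: DMSO and RFP-L50D-GFP cell wells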
Env fusion inh: inhibitors of HIV-1 Env-driven cell-cell fusion, primary screen, HeLa-JRFL effector, CEM21 target cells, luciferase; inhibition, % at 12.3 µM; 360,000 tested, 1.1% active; AID 651610, 2012;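 active = mean replicate inhibition score of at least 50 and every replicate individually at or above 50; inconclusive = only one of the two criteria met; inactive = mean below 50 and not all replicates reaching 50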;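 also: 0% = plate neutral controls and 100% = maraviroc near 300 nM; one replicate is shown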
UUG fidelity: modulators of yeast start codon fidelity, primary screen, whole organism, S. cerevisiae, single point, plate reader. S. cerevisiae UUG-firefly luciferase reporter, luminescence/redox ratio. activity score, % at 18.7 µM. 350,000 tested, 0.13% active. AID 602363, 2012;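 active = replicate mean at a twofold rise or more, about +100% in these data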;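 also: firefly luciferase made from a UUG start codon reports start codon fidelity; reporter light over untreated wells divided by growth signal over untreated wells; some hits fall short of that in this replicate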
MT1-MMP act inh RFP: also measured in MT1-MMP act inh; calls as there; RFP signal change, %; measured here: RFP expression control read;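 0 = vehicle wells; hits needed this value within 50% of zero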
Numbers without * were called inactive; i = inactive; u = inconclusive; x = not tested or not shown. An excerpt (hit frequency here may not be typical).

SMILES | MT1-MMP act inh RFP | PABP FP inh | UUG fidelity | MT1-MMP act inh | Rce1 inhib | Env fusion inh | eIF4H inh | CSC inhib
CCOc1ccc2nc(Cl)c(/C=C/C(=O)c3ccco3)cc2c1 | -2 | 13 | x | -11 | i | -55 | -10 | 5
CC1CCCCC1NC(=O)COC(=O)/C=C/c1ccc2c(c1)OCO2 (centres undefined) | 4 | -2 | -16 | 5 | i | 3 | 1 | -7
CCOCCn1c(CN2CCCCC2C)nc2c1c(=O)n(C)c(=O)n2C (centres undefined) | 2 | -3 | -25 | -2 | i | x | -5 | -20
O=C(CSc1nnc(-c2ccncc2)o1)NC1C2CC3CC(C2)CC1C3 (centres undefined) | 5 | 2 | x | 6 | i | x | 1 | -13
CCCCCCCC(=O)N/N=C(\C)c1cccnc1 | 0 | 12 | -11 | -5 | i | 12 | -2 | 2
CCc1ccc(OCCOC(=O)Nc2ccccc2)cc1 | -1 | 1 | -22 | 0 | i | 10 | -1 | 11
Cn1cc(C(CO)Cc2ccccc2)c2ccccc21 (centres undefined) | 0 | x | 6 | -2 | x | 11 | x | 11
OCCNc1nc(-c2cccnc2)nc2ccccc12 | 3 | -6 | 1 | 5 | i | 2 | 1 | -14

Later entries.
SMILES | MT1-MMP act inh RFP | PABP FP inh | UUG fidelity | MT1-MMP act inh | Rce1 inhib | Env fusion inh | eIF4H inh | CSC inhib
CC(C)C[C@H](NC(=O)[C@H]1N2C(=O)c3ccccc3C2SC1(C)C)C(=O)N[C@@H](Cc1ccccc1)C(=O)O (some centres undefined) | 0 | 6 | -2 | -5 | i | x | -2 | -7
Cc1ccccc1CN1C2=NCCN2c2ccccc21 | 1 | 9 | -18 | -9 | i | -375 | -5 | 14
Cc1cc(F)ccc1S(=O)(=O)Nc1ccccc1C(=O)Nc1ncn[nH]1 | -3 | 10 | -10 | -1 | i | x | 3 | 6
CC(OC(=O)Cn1[nH]c(=O)c2ccccc2c1=O)C(=O)c1ccccc1 (centres undefined) | 1 | -14 | 0 | 4 | i | -12 | -1 | -9
CC1Cc2ccccc2N1S(=O)(=O)c1cccc(C(=O)OCC(=O)NCc2ccco2)c1 (centres undefined) | -3 | -2 | 23 | -5 | i | 18 | 9 | -5
COC(=O)c1ccc(NC(=O)COC(=O)c2nc3nccc(C)n3n2)cc1 | 3 | -7 | x | 3 | i | -4 | 0 | -6
COc1ccc(N(CC(=O)NCc2ccc3c(c2)OCO3)C(=O)CCC(=O)Nc2ccccn2)cc1 | 2 | -2 | x | 3 | i | u | 0 | -2
COc1ccc(C/C(N)=N/O)cc1 | 4 | -5 | -11 | -3 | i | 5 | -11 | -7

(continued)
SMILES | MT1-MMP act inh RFP | PABP FP inh | UUG fidelity | MT1-MMP act inh | Rce1 inhib | Env fusion inh | eIF4H inh | CSC inhib
COc1ccc(C(CNC(=O)C(C)(C)Oc2ccc(Cl)cc2)N2CCCC2)cc1 (centres undefined) | -5 | x | 2 | 0 | x | x | x | 9
Cc1c(O)nc(SCC(=O)Nc2cccc(C(F)(F)F)c2)n(-c2ccccc2)c1=O | 1 | -1 | -3 | 8 | i | 2 | -11 | -5
COC(=O)c1sc(NC(=O)COc2cccc3ccccc23)nc1C | 2 | -6 | -12 | 1 | i | -136 | -1 | 24
Cc1c(C)c2ccc(OCC(=O)Nc3ccccn3)c(C)c2oc1=O | 2 | -7 | -76 | 5 | i | 83* | -5 | 38
CCc1ccc(NS(=O)(=O)c2ccc3[nH]cc(C(=O)N4CCCCC4)c(=O)c3c2)cc1 | 0 | -1 | -6 | -3 | i | -17 | 3 | 4
COc1ccc(C(=O)/C=C/c2ccc(C)cc2)c(OC(=O)c2ccc([N+](=O)[O-])cc2)c1 | 0 | 37 | 10 | 1 | i | -160 | 0 | 21
O=C(O)CCc1nn2c3ccccc3n(CCN3CCCCC3)c2nc1=O | 1 | 0 | 4 | -3 | i | -54 | 5 | x
O=c1cc(-c2ccccc2)cc(-c2ccccc2)n1CCCO | -2 | x | -15 | 0 | i | 12 | x | 35

Next part
SMILES | MT1-MMP act inh RFP | PABP FP inh | UUG fidelity | MT1-MMP act inh | Rce1 inhib | Env fusion inh | eIF4H inh | CSC inhib
CC(Cc1ccccn1)NC(=O)CCc1nnc(C2CCCCC2)o1 (centres undefined) | 4 | 2 | -21 | 3 | i | -9 | 5 | -2
O=C(CSc1nnc(Cc2cccs2)n1Cc1ccco1)Nc1cccc(Cl)c1 | -4 | -4 | -10 | -7 | i | -44 | 0 | -14
CCN(CC)S(=O)(=O)c1cccc(-c2nnc(SCC(=O)NC3CCCCCC3)n2N)c1 | -3 | -2 | -1 | 6 | i | 12 | -5 | -10
COC(=O)C12CC3CC(C1)CC(n1cnc(Cl)n1)(C3)C2 | 11 | -9 | x | 4 | i | -9 | -3 | -2
COc1ccc(-c2c(C)nn3c(N4CCC(C(=O)NCCN(C)C)CC4)cc(C)nc23)cc1OC | 3 | -2 | -16 | 5 | i | 4 | 2 | 5
CS(=O)(=O)N(CC(=O)Nc1ccc2c(c1)OCO2)Cc1ccccc1 | -1 | 3 | -9 | -3 | i | -6 | -1 | -6
COc1cc(/C=C(\C#N)C(=O)NC(C)C)ccc1OCc1ccc(C(=O)O)cc1 | -5 | 11 | 23 | -3 | i | -9 | 12 | 1
O=C(CN1CCN(C(=O)c2cccc(F)c2)CC1)NC1CCCCC1 | x | 16 | x | x | i | x | -4 | -2

The results go on:
SMILES | MT1-MMP act inh RFP | PABP FP inh | UUG fidelity | MT1-MMP act inh | Rce1 inhib | Env fusion inh | eIF4H inh | CSC inhib
O=C(NNC(=O)c1cccnc1)Nc1ccc([N+](=O)[O-])cc1 | 2 | 48 | x | -3 | i | 4 | -3 | 12
CCc1nc2sc3c(c2c(=O)n1NC(=O)CCl)CCCC3 | -3 | 5 | 53 | -2 | i | -13 | 3 | 2
C=CCN1c2ccccc2C(=O)C(C)S1(=O)=O (centres undefined) | 2 | x | -9 | -2 | x | 3 | x | x
Cc1ccccc1CSc1ncnc2ccccc12 | -7 | -8 | x | -8 | i | 0 | 0 | 17
CCCCN(C(=O)c1oc2ccc(OCC)cc2c1C)c1c(N)n(CCCC)c(=O)[nH]c1=O | -3 | x | -20 | -8 | i | x | x | -6
C=CC[N+]1(CC(=O)NCc2ccc(NC(C)=O)cc2)CCOCC1 | 2 | 1 | x | -2 | i | -8 | -11 | -10
Cc1ccc(-c2cc(C(F)F)n3ncc(C(=O)Nc4c(C)nn(Cc5ccccc5Cl)c4C)c3n2)cc1 | -35 | -7 | -20 | -49 | i | -24 | -2 | -10
Cc1cc(C)n2nc(SCc3c(F)cccc3Cl)nc2n1 | -1 | 2 | -30 | 0 | i | -11 | -11 | -6

(further entries)
SMILES | MT1-MMP act inh RFP | PABP FP inh | UUG fidelity | MT1-MMP act inh | Rce1 inhib | Env fusion inh | eIF4H inh | CSC inhib
CC1CC(C(F)(F)C(F)(F)F)n2nc(C(=O)O)cc2N1 (centres undefined) | 6 | 4 | -18 | 1 | i | x | -2 | -5
CCCN1CCCc2cc(CN)ccc21 | 2 | 92* | -14 | -8 | i | 46 | 58* | 14
CCN(CC(=O)Nc1c(F)cccc1F)C(=O)Cc1c[nH]c2ccccc12 | 0 | x | -3 | 0 | x | -8 | x | -6
Cc1cc(C)cc(SCc2noc(C(=O)NCC3CC3)c2C(=O)NCC2CC2)c1 | x | x | x | x | i | 8 | x | 32
CC(C)(CN1CCN(c2ccccc2)CC1)NS(=O)(=O)c1ccccc1 | -7 | -1 | -15 | 10 | i | 15 | 2 | 24
O=C(CCCN=C1NS(=O)(=O)c2ccccc21)OCC(=O)c1ccccc1Cl | 2 | x | -8 | 0 | i | -8 | x | -10
Cc1cc(C)cc(N2CN=c3s/c(=C\c4ccco4)c(=O)n3C2)c1 | -3 | -4 | -19 | 3 | i | x | 24 | -9
COc1ccc(C2CC(c3cccs3)=NN2C(=O)CSc2nc(=O)n3ccccc3n2)cc1 (centres undefined) | -5 | x | -11 | -11 | i | -7 | x | -2

(next part)
SMILES | MT1-MMP act inh RFP | PABP FP inh | UUG fidelity | MT1-MMP act inh | Rce1 inhib | Env fusion inh | eIF4H inh | CSC inhib
CS/C(=N\S(=O)(=O)c1ccc(N)cc1)NS(=O)(=O)c1cccs1 | -1 | 10 | -17 | 0 | i | x | -6 | -2
CCCCC1(Cc2cccc([N+](=O)[O-])c2)C(=O)N(c2ccccc2)N(c2ccccc2)C1=O | -30 | -5 | -12 | -11 | i | 120* | -2 | -14
CC(C)c1ccc(C(=O)N2CCCC(c3cc(C(=O)Nc4ccc5c(c4)OCO5)no3)C2)cc1 (centres undefined) | -11 | x | -14 | 0 | x | -52 | x | x
Cc1ccc(-n2c(-c3nn(C)c(C)c3Cl)n[nH]c2=S)cc1 | -3 | -11 | -14 | -1 | i | -51 | -5 | -5
O=C(O)c1ccc(NC(=O)c2ccccc2NC(=O)c2ccccc2Cl)cc1 | 2 | -5 | -18 | 1 | i | -15 | 2 | -8
COc1ccccc1Nc1nc(N)nc(-c2oc3ccccc3c2C)n1 | -4 | -2 | 4 | 4 | i | -57 | -1 | -16
Cc1ccc(SC/C(O)=C(\C#N)c2nc3ccccc3s2)cc1 | -13 | -6 | -14 | 0 | i | x | 1 | 37
CN1C2=CC=CC=CC2=[N+](C)C12C([N+](=O)[O-])=CC(=[N+]([O-])[O-])C=C2[N+](=O)[O-] (centres undefined) | -4 | 1 | -1 | 24 | i | -88 | 0 | 66

Carrying on.
SMILES | MT1-MMP act inh RFP | PABP FP inh | UUG fidelity | MT1-MMP act inh | Rce1 inhib | Env fusion inh | eIF4H inh | CSC inhib
Cc1ccc(S(=O)(=O)N2C[C@@H]3CCCC[C@@H]3[C@@H](C)[C@H]2c2cn(Cc3ccccc3)c3ncccc23)cc1 | -28 | x | 9 | -1 | x | 70* | x | x
O=C(Cc1ccc(Cl)cc1)Nc1ccc(-c2cc3ccccc3oc2=O)c(Cl)c1 | -22 | -7 | -1 | -2 | i | 16 | -6 | 82*
COCCCNC(=O)C1CCCCN1S(=O)(=O)c1ccc(F)cc1 (centres undefined) | 1 | -3 | -14 | 6 | i | -8 | -10 | -2
CC1CCc2sc(C(=O)NCc3ccccn3)cc2C1 (centres undefined) | 1 | x | -14 | 3 | i | x | x | -12

From PubChem BioAssay
